# Compound activity from PubChem BioAssay.
# NS1 inh = qHTS Assay for Inhibitors of Influenza NS1 Protein Function | AID 2326, 2010 | S. cerevisiae slowed by influenza A NS1, growth recovery by OD600 | 270,000 tested, 0.4% active | Potency, µM (highest dose often 46.1 µM), for inactives: top-dose activity, positive = more growth; note: actives are rising curves; nearly all actives have a fitted effect of over 50% in size
#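 S. cerevisiae expressing influenza A NS1, grown in glucose, washed, then diluted 1:100 into pH 6.0 -URA galactose medium with 23 nl compound. Growth recovery read as OD600; NS1-free strain serves as control.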
# StopGo reporter = High Throughput Screening for Foot and Mouth Disease Virus Antivirals; AID 1159524, 2015; human cells with a luciferase reporter of 2A StopGo recoding; control for the full effect not named in the record; 410,000 tested, 1.2% active; Potency, µM (doses to about 57.9 µM), for the others: at the top dose signal change, negative = less light; active = well fitted falling curve with a large enough effect; inconclusive = small, poorly fitted or top-dose-only effect; inactive = no such curve, though single readings can be large or run the other way; tested in HEK293T cells; note: % is set by controls: 0 for no effect and ±100 for the full control effect; nearly all actives have a fitted effect of over 45% in size; luciferase light after 4 h
# Cruzain inh noDet = qHTS Assay for Promiscuous and Specific Inhibitors of Cruzain (without detergent) | Cruzipain (Trypanosoma cruzi), P25779 | purified cruzain, Z-FR-AMC fluorescence, no detergent | Potency, µM, without a hit: max response, negative = inhibition, actives largely listed as inhibitors | 200,000 tested, 2.3% active | AID 1476, 2009; active = well fitted curve in the direction sought with a large enough effect; inconclusive = small, poorly fitted or top-dose-only effect, or another doubt; inactive = no such curve, though single readings can be large; an effect the other way counts as inactive or inconclusive;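 note: plate controls were enzyme without inhibitor for no effect and buffer without enzyme for full effect; nearly all actives have a fitted effect of over 40% in size; top concentration of the series not given in the record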
# Target sequence (P25779 123-467 limits assumed): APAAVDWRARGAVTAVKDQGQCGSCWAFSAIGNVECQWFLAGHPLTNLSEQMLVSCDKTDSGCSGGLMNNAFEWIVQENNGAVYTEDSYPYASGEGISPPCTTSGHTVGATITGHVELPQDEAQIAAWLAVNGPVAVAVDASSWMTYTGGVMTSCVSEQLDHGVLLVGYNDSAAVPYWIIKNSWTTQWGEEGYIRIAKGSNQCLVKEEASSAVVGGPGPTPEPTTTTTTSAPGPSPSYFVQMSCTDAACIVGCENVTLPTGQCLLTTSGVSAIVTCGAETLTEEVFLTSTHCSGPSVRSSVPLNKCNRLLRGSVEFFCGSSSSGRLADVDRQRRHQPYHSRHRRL
#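 Purified cruzain at 1.5 nM, pre-incubated 15 min with compound at room temperature in 100 mM sodium acetate pH 5.5, 5 mM DTT, 0.00005% Triton X-100. Reaction started with 2 uM Z-FR-AMC; AMC fluorescence increase over 60 s gives rate.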
# RE007 growth inh = qHTS Assay for Inhibitors of the HIV-1 protein Vpr. AID 651644, 2012. 360,000 tested, 0.21% active. Potency, µM (titrated, usually from 92.2 µM), without a hit: top-dose activity change, negative = less growth. S. pombe RE007 Vpr strain, BacTiter-Glo ATP luminescence, 24 h; control for the full effect not named in the record; active = well fitted falling curve with a large enough effect; inconclusive = small, poorly fitted or top-dose-only effect; inactive = no such curve, though single readings can be large or run the other way;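 note: % is set by controls: 0 for no effect and ±100 for the full control effect; nearly all actives have a fitted effect of over 50% in size; the assay follows cell death caused by Vpr and the record does not say whether a fall means rescue or toxicity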
#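 Fission yeast strain RE007, carrying one chromosomally integrated HIV-1 vpr copy, was seeded at OD 0.01 in PMG+AL medium with 23 nL pinned compound. After 24 h at 30 °C and 99% humidity, viability was read by BacTiter-Glo luminescence.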
# SARS PLpro yeast = qHTS of Yeast-based Assay for SARS-CoV PLP. Potency, µM (highest dose often 32.9 µM), without a hit: top-dose activity, positive = growth rescue. 330,000 tested, 0.19% active. AID 485353, 2010. S. cerevisiae expressing SARS-CoV PLpro, growth rescue; control for the full effect not named in the record; note: 0% is about no effect; nearly all actives have a fitted effect of over 55% in size; growth read by luminescence after 48 h
# Cruzain inh Det = qHTS Assay for Promiscuous and Specific Inhibitors of Cruzain (with detergent); Cruzipain (Trypanosoma cruzi), P25779; 200,000 tested, 0.43% active; purified cruzain, Z-FR-AMC fluorescence, 0.01% Triton; Potency, µM, for inactives: max response, negative = inhibition, actives largely listed as inhibitors; AID 1478, 2009; active = well fitted curve in the direction sought with a large enough effect; inconclusive = small, poorly fitted or top-dose-only effect, or another doubt; inactive = no such curve, though single readings can be large; an effect the other way counts as inactive or inconclusive;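 note: plate controls were neutral wells for no effect and buffer without enzyme for full effect; nearly all actives have a fitted effect of over 40% in size; top concentration of the series not given in the record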
#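 In this qHTS format, compounds are incubated with 1.5 nM cruzain for 15 min at room temperature before 2 uM Z-FR-AMC is added. Release of AMC is followed at 360/450 nm, and progress is taken as the 60 s fluorescence difference.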
# MARV entry inh = qHTS for inhibitors of binding or entry into cells for Marburg Virus | Marburg virus pseudotyped entry inhibition, cell reporter; control for the full effect not named in the record; about a third of the inactives were read at about 46 µM | Potency, µM (doses to about 37.8 µM), without a hit: at the top dose activity change, negative = inhibition, usual class: inhibitors | 300,000 tested, 1.8% active | AID 540276, 2011; active = well fitted inhibition curve with a large enough effect; inconclusive = small, poorly fitted or top-dose-only effect, or effect the other way; inactive = flat fitted curve, though single readings scatter; tested in HEK293 cells; about a fifth of its hits are not listed in these tables; note: % is set by controls: 0 for no effect and ±100 for the full control effect; luciferase read-out
# LASV entry inh = qHTS for Inhibitors of binding or entry into cells for Lassa Virus. Potency, µM (titrated, usually from 37.9 µM), inactives show at the highest dose activity change, negative = inhibition, hits mostly inhibitors. 300,000 tested, 1.2% active. AID 540256, 2011. Lassa virus pseudotype entry inhibition, cell reporter; control for the full effect not named in the record; active means well fitted inhibition curve with a large enough effect; inconclusive means small, poorly fitted or top-dose-only effect, or effect the other way; inactive means flat fitted curve, though single readings scatter; tested in HEK293 cells; note: % is set by controls: 0 for no effect and ±100 for the full control effect; nearly all actives have a fitted effect of over 50% in size; luciferase read-out
# An asterisk follows results filed as active; ? = inconclusive; nt = not tested or not shown; & = joins results of further samples; [ ] = remark or other dose. Unless noted, calls come from the whole dose curve; as a rule, active means well fitted rising curve with a large enough effect; inconclusive means small, poorly fitted or top-dose-only effect; inactive means no such curve, though single readings can be large or run the other way. Potency is the fitted concentration of half-maximal effect. Rows were taken by chance (roughly 4.7% active in at least one column).
SMILES,NS1 inh,StopGo reporter,Cruzain inh noDet,RE007 growth inh,SARS PLpro yeast,Cruzain inh Det,MARV entry inh,LASV entry inh
O=C(NCCN1CCOCC1)c1cccc(S(=O)(=O)N2CCCC2)c1,4.0%,-7.0%,nt,0.4%,-6.4%,nt,-1.1%,21.1%
c1cnc2c(C3NCCc4c3[nH]c3ccccc43)cccc2c1 (configuration not stated),5.3%,-19.9%,nt,-15.9%,0.3%,nt,nt,nt
N=c1sccn1Cc1ccc(Cl)cc1Cl,8.5%,-17.3%,0.6%,-11.8%,5.5%,0.1%,?,25.9%
CC(NC(=O)c1ccccc1NC(=O)c1ccco1)C(=O)O (configuration not stated),5.2%,7.6%,20.1%,-3.1%,-6.9%,1.0%,?,-0.1%
Cc1c(Cl)cccc1NC(=O)CCCn1cnc([N+](=O)[O-])n1,nt,-9.7%,nt,0.1%,2.6%,nt,-8.3%[46.1 µM],6.2%
CC(NC(=O)c1c(Cl)cnn1C)C1CCCO1 (configuration not stated),1.8%,-7.8%,nt,1.5%,0.3%,nt,?,-3.4%[46.1 µM]
O=C(COc1ccccc1)NC1CCSC1=O (configuration not stated),3.1%,19.8%,nt,7.4%,0.4%,nt,-13.3%[46.1 µM],-14.5%[46.1 µM]
CCOC(=O)CC(=O)CSc1[nH]c(=O)cc(C)c1C#N,13.3%,3.7%,-4.5%,5.8%,nt,5.3%,-0.2%&-0.2%,2.0%
COCc1nnc(NC(=O)c2ccco2)s1,-12.0%,7.7%,-7.6%,-11.4%,1.6%,7.8%,3.4%,10.0%
CSCC[C@H](NS(=O)(=O)c1ccc(C)cc1)C(=O)N1CCC(C(=O)N[C@H](C(=O)O)c2ccccc2)CC1,-2.9%,13.1%,nt,-4.2%,2.7%,nt,nt,nt
CC(C)OC1CCCC(O)C1CC(=O)O (configuration not stated),6.0%,-18.1%,nt,-7.0%,1.0%,nt,nt,nt
CC(=O)NN(O)C1N(C)C(=O)N(Cc2ccccc2)C1(C)C (configuration not stated),nt,-10.0%,nt,-14.8%,nt,nt,-1.2%,1.7%
O=C(CSc1nc2ccccc2n1S(=O)(=O)c1cccc([N+](=O)[O-])c1)NCCc1ccccc1,-0.4%,-4.2%,-4.0%,7.3%,1.4%,-3.3%,7.6%&1.8%,?
Cc1nnc2c(N(C)S(=O)(=O)c3ccccc3)nc3ccccc3n12,-6.9%,36.6%[activator],nt,-23.9%,-4.0%,nt,11.4%[46.1 µM],20.5%[46.1 µM]
O=C(NC1Cc2ccccc2C1)c1cc(COc2cccc(C(F)(F)F)c2)on1,-3.3%,-6.4%,nt,-0.9%,9.6%,nt,nt,nt
COc1cc(OC)cc(-c2nc3ccccc3c(=O)n2OC(=O)c2ccc(Br)cc2)c1,-32.1%,-23.8%,25.1µM*,-16.4%,?,-2.3%,-4.3%[46.1 µM],6.8%
C=CCN1C(=O)OC2(CCCCC2)C1(C)O (configuration not stated),3.6%,-10.5%,-0.7%,3.0%,-2.0%,1.1%,23.7%,1.7%
CCOC(=O)c1[nH]c(C)c(CCC(=O)Nc2ccc(N(CC)CC)cc2C)c1C,nt,-18.7%,-17.6%,nt,nt,3.7%,nt,?
CCOC(=O)C1CCN(c2c(NCCCN(CC)Cc3ccccc3)c(=O)c2=O)CC1,-5.9%,9.5%,-4.4%,-5.5%,4.2%,6.5%,0.2%,17.1%
Cc1ccccc1C(=O)NNC(=S)NC(=O)c1ccccc1,-136.9%,-23.7%,4.8%,?,-62.1%,4.1%,?,?
CC(C)c1ccccc1NC(=O)CCc1nc2ccccc2s1,17.6%,-3.0%,6.2%,nt,7.3%,-9.1%,-1.2%,-0.4%
COc1ccccc1C(=O)NCc1nnc(SCC(=O)Nc2nccs2)n1C,2.4%,-10.0%,nt,9.1%,-1.0%,nt,8.2%[46.1 µM],0.6%
COCCn1c(SCC(=O)Nc2cccc(F)c2)nc2c(c1=O)SCC2,10.8%,-0.8%,nt,-7.5%,4.6%,nt,nt,nt
Cc1[nH]n(-c2ccccc2)c(=O)c1C(=O)c1ccc([N+](=O)[O-])cc1,4.1%,?,nt,0.1%,1.4%,nt,?,10.4%
Cc1ccc(S(=O)(=O)c2c(O)c3ccc(C(=O)O)cc3[nH]c2=O)cc1,3.8%,0.4%,nt,-0.2%,0.0%,nt,nt,nt
C/C(=N\N=C1\NC(=O)C(CC(=O)Nc2ccc(Cl)cc2)S1)c1ccco1 (configuration not stated),-38.6%,-26.6%,nt,-13.7%,-0.2%,nt,11.0%[46.1 µM],-26.7%
O=[N+]([O-])c1ccc(N2CCN(c3ccc([N+](=O)[O-])cc3CO)CC2)c(CO)c1,-1.0%,?,nt,0.1%,0.7%,nt,-21.4%[46.1 µM],-15.4%[46.1 µM]
Cc1cc(/C=N/Nc2ccc([N+](=O)[O-])cn2)c(C)n1-c1ccc(C(=O)O)cc1,nt,9.5%,nt,13.3%,0.4%,nt,9.9%[46.1 µM],21.1%
COC(=O)c1cccc(C23CC4(C2)[C@H](CN(C)[C@@H]4c2ccccc2)C3c2ccc(C(F)(F)F)cc2)c1 (some centres not stated),6.7%,-16.1%,-5.9%,0.4%,-3.1%,0.5%,nt,nt
Cc1ccc(C(=O)CSc2nnc(-c3ccccc3)n2-c2ccccc2)o1,-5.8%,5.1%,-4.7%,18.8%,18.0%,-1.8%,-5.9%,?
CC1CCN(S(=O)(=O)c2cccc(S(=O)(=O)N3CCCC3)c2)CC1,-8.4%,-7.0%,nt,11.2%,1.3%,nt,-2.5%[46.1 µM],-16.5%
Cc1ccccc1N=C1SCCN1C(=O)CN1C(=O)NC2(CCCC2)C1=O,nt,-20.3%,nt,0.1%,-2.9%,nt,12.1%,-1.4%
COc1ccc(CCNS(=O)(=O)CCNC(=O)c2ccccc2)cc1,nt,-11.4%,nt,2.3%,-1.2%,nt,-0.3%,-11.4%
O=C(CSc1nnc(NC(=O)c2ccc3c(c2)OCO3)s1)NCc1ccco1,4.3%,-33.4%,nt,-10.5%,-0.1%,nt,7.08µM*,?
O=Cc1cn(Cc2cccc([N+](=O)[O-])c2)c2ccccc12,?,-28.0%,2.8%,-2.1%,-5.1%,-9.2%,0.82µM*,0.631µM*
Cc1ccc(NC(=O)CCc2c(C)nn(-c3ccc(N4CCCCC4)nn3)c2C)cc1,-20.4%,10.6%,nt,13.3%,-0.9%,nt,?,6.1%[46.1 µM]
O=C(O)c1ccc(-c2ccccc2Cl)o1,-53.0%,30.7%[activator],-2.4%&2.6%,-6.4%,-13.6%,-1.6%&-2.0%,8.5%&8.5%,2.5%
COC(=O)c1cccc(C#CC(NP(=O)(c2ccccc2)c2ccccc2)c2ccccc2)c1 (configuration not stated),7.9%,?,-9.0%,-13.2%,-0.9%,-1.1%,nt,nt
CC(CNc1nc2ccccc2n2cnnc12)c1ccccc1 (configuration not stated),-5.3%,?,nt,-9.2%,-0.3%,nt,nt,nt
Cc1cc(C(C)(C)C)oc1C(=O)N(CC(=O)NC1CCCC1)c1ccc(F)cc1,5.7%,nt,8.5%,0.0%,-7.7%,-4.4%,-25.8%,?
CC(=O)c1cn(CCCCCCCCCCn2cc(C(C)=O)c(=O)[nH]c2=O)c(=O)[nH]c1=O,2.2%,nt,?,nt,-0.9%,7.8%,-5.7%,nt
CCn1c(SCC(=O)Nc2cccc(OC)c2)nc2ccccc2c1=O,-9.8%,-9.7%,nt,0.0%,2.9%,nt,nt,nt
NC1=NC(=O)N2CC12 (configuration not stated),nt,0.0%,nt,1.6%,nt,nt,?,8.8%
CC(=O)c1c(N2CCOCC2)nc2ccc(Cl)cc2c1-c1ccccc1,-4.2%,-21.1%,nt,-10.0%,-2.5%,nt,?,?
CCOc1ccc(C(CCc2ccccc2)NC(=O)c2ccccc2F)cc1OCC (configuration not stated),-6.7%,-17.4%,24.6%,-13.9%,2.0%,-8.8%,-6.1%,?
Cc1nc2ccccn2c1/C(O)=C1\C(=O)C(=O)N(CCN2CCOCC2)C1c1ccncc1 (configuration not stated),-5.8%,3.7%,2.1%,7.3%,8.1%,-3.7%,18.0%,5.7%
COc1ccc(Nc2cc(Cl)ccc2C(=O)O)cn1,-108.5%,-16.4%,nt,10.1%,-1.3%,nt,nt,nt
O=C(CCn1cnc2onc(-c3ccc(F)cc3)c2c1=O)N1CCN(c2ccccc2)CC1,nt,0.0%,29.7%,nt,nt,-7.1%,nt,5.0%[46.1 µM]
COc1ccc(CC(=O)NC(c2ccccc2)c2ccccc2)cc1S(=O)(=O)N1CCOCC1,-1.9%,-11.6%,?,10.3%,-4.2%,-2.7%,?,-12.9%
O=C(CN1CCCN(S(=O)(=O)c2ccc(F)cc2)CC1)Nc1c(Cl)cccc1Cl,-16.9%,-29.3%,nt,29.8%,-1.5%,nt,-34.2%[46.1 µM],4.7%[46.1 µM]
CCOc1ccc(C(=O)Nc2ccc3nc(SCC(=O)N4CCCC4)sc3c2)cc1,nt,?,-7.6%,nt,nt,-1.2%,?,-1.8%[46.1 µM]
O=C(CN1CCN(S(=O)(=O)c2ccc(Br)cc2)CC1)N/N=C/c1ccc(Cl)c([N+](=O)[O-])c1,?,-15.4%,0.5%,-0.2%,12.0%,-4.2%,14.6µM*,?
COc1ccc(C(C(=O)NC2CCCCC2)N(CC2CCCO2)C(=O)C2COc3ccccc3O2)cc1OC (configuration not stated),-3.7%,-12.6%,21.6%,8.8%,10.9%,0.8%,-3.2%,-12.3%
COc1ccc(Cl)cc1N=Cc1c(O)n(C)c(=O)n(C)c1=O,2.2%,-12.6%,nt,-4.2%,3.2%,nt,14.4%[46.1 µM],9.2%[46.1 µM]
Clc1ccccc1Cn1nnc(-c2ccccc2)n1,5.4%,42.6%[activator],nt,3.2%,-0.4%,nt,?,15.5%
